HSV replic up = enhancers of HSV replication in host cells, fold increase, host cell viability | HSV replication augmentation in cells | maximum fold increase | 220,000 tested, 0.005% active;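 active = peak rise of 1.5-fold or more in the series; inconclusive = self-fluorescent or not available for retest; tested in PC3 cells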;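 also: first round at 10 µM; read as green reporter fluorescence; hits show the peak of a series up to 25 µM; 1 = signal of infected wells without compound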
PKD1 inh = inhibitors of human PKD1 kinase, biochemical, fluorescence polarization | Serine/threonine-protein kinase D1 (Homo sapiens), Q15139 | PKD1 kinase fluorescence polarization assay | inhibition, %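 (about 10 µM by stock and volumes)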 | 200,000 tested, 0.056% active;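 active = inhibition of 50% or more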;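 also: controls were vehicle for no effect and a reference inhibitor for full effect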
Target sequence (Q15139 whole entry, looked up): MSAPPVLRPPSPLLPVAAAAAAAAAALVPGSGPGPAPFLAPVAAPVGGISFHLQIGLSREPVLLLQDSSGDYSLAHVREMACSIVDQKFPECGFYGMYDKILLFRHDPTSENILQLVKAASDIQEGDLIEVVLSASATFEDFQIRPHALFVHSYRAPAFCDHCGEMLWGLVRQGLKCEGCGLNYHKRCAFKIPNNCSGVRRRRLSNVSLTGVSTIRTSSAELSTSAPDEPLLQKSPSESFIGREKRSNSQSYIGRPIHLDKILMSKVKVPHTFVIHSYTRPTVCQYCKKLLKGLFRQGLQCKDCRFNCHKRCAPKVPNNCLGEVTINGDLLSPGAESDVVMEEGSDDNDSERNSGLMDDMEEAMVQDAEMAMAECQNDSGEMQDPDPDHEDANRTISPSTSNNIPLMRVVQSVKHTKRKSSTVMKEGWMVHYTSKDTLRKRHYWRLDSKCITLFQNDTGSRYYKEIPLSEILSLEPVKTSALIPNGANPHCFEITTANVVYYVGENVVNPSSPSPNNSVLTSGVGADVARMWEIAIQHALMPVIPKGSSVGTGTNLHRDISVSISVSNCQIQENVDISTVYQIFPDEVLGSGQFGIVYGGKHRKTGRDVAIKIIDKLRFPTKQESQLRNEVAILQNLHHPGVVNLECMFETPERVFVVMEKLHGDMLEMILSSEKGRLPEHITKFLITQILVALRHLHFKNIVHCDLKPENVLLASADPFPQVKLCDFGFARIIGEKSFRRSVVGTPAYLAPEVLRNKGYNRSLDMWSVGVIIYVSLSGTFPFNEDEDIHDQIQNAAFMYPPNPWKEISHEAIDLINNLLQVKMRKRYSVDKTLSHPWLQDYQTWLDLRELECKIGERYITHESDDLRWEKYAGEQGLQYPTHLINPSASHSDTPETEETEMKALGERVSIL
GALR2 agonist = GALR2 receptor agonists, primary screen, cell-based. Galanin receptor type 2 (Homo sapiens), O43603. GALR2-expressing cells, agonist activation read-out. activation, %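 (tested at 5 µM)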. 140,000 tested, 0.48% active. AID 803, 2007;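 active = above mean plus 3 SD of all compounds, about 5% in these data, not always enough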;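 also: 0% = vehicle buffer wells and 100% = reference agonist at full effect; tested in CHO reporter cells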
INS promoter inh = inhibitors of insulin promoter-driven GFP, primary screen, imaging, TRM-6 cells (human fetal islet line), eGFP reporter, cell count; 130,000 tested, 0.9% active; inhibition, % at 2 µM; AID 1273, 2008; reporter expression induced with tamoxifen;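 active = inhibition above the mean plus 3 SD, with well images judged a real hit on visual review, cut at about 60% in these data, passing the limit was not always enough; inconclusive = inhibition over the cutoff but images rejected on review; inactive = inhibition not above the cutoff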
RGS16-Gao = modulators of RGS16 binding to Galphao, primary screen, biochemical, human proteins, multiplexed bead flow cytometry; Regulator of G-protein signaling 16 (Homo sapiens) + Guanine nucleotide-binding protein …; bead-based flow cytometry RGS16-Galphao binding, fluorescence; actives lie on both sides; binding response (% of control), % at 10 µM; 220,000 tested, 0.38% active; AID 1441, 2008;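 active = below 25% or above 175%, edge rows of some plates excepted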;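 also: Galphao activated by GDP with aluminum fluoride before binding; 100% = wells without compound and 0% = beads without RGS; some results beyond the cut were filed as inactive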
INS promoter inh cell count = second read-out of INS promoter inh, no call of its own (marks repeat the call); normalized cell count, %; measured here: cell count, toxicity; reference of the scale not given here;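 cells exposed to compound for 48 h; stained nuclei by imaging scaled within each plate; lower means fewer cells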
HSV replic up primary fold = second read-out of HSV replic up, no call of its own (marks repeat the call); fold increase; compound at 10 µM; measured here: primary screen fold increase 10 uM; tested in PC3 cells;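 GFP signal in the first replicate; 1 = infected wells without compound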
* hit, by the source's call.

For Cc1ccc(S(=O)(=O)N2CCN(C(=O)CCC(=O)NCc3ccc(F)cc3)CC2)cc1 the results were HSV replic up inactive, PKD1 inh 0, GALR2 agonist -2.0, INS promoter inh -69, RGS16-Gao 109, INS promoter inh cell count 85 and HSV replic up primary fold 1.
Cc1cc(C)n(Cc2n[nH]c(=S)n2Cc2ccccc2)n1 was read as HSV replic up inactive, PKD1 inh -7, GALR2 agonist -1.0, INS promoter inh -44, RGS16-Gao 103, INS promoter inh cell count 30 and HSV replic up primary fold 0.89.
Screening O=C(Nc1ccc2c(c1)OCCO2)c1cncc(Br)c1 returned HSV replic up inactive, PKD1 inh -4, GALR2 agonist 0.9, INS promoter inh 18, RGS16-Gao 101, INS promoter inh cell count 60 and HSV replic up primary fold 1.
`Cc1nn(C)c(C)c1NC(=O)c1ccc(Br)o1` gave HSV replic up inactive, PKD1 inh -1, INS promoter inh -7, RGS16-Gao 119, INS promoter inh cell count 102 and HSV replic up primary fold 1.1.
CCN(CC)S(=O)(=O)c1ccc(C)c(C)c1 was read as HSV replic up inactive, PKD1 inh -3, GALR2 agonist -1.8, INS promoter inh 10, RGS16-Gao 100, INS promoter inh cell count 183 and HSV replic up primary fold 0.84.
For COc1cccc(C2=NOC(C(=O)NCc3ccco3)C2)c1 (stereo not drawn) the results were PKD1 inh 0, GALR2 agonist -0.7, INS promoter inh 29, RGS16-Gao 107 and INS promoter inh cell count 72.
For O=C(c1ccccc1)c1cc([N+](=O)[O-])ccc1N1CCCC1 the results were HSV replic up inactive, PKD1 inh 10, GALR2 agonist -0.6, INS promoter inh -53, RGS16-Gao 99, INS promoter inh cell count 107 and HSV replic up primary fold 0.92.
CCOC(=O)c1[nH]c2ccc(OC)cc2c1NC(=O)N1CCOCC1 was read as HSV replic up inactive, PKD1 inh -1, GALR2 agonist -1.0, INS promoter inh -4, RGS16-Gao 112, INS promoter inh cell count 45 and HSV replic up primary fold 1.
COc1ccccc1Nc1nc(NCC(C)C)nc(N)c1[N+](=O)[O-] was read as HSV replic up inactive, RGS16-Gao 102 and HSV replic up primary fold 0.64.
COC(=O)c1cc(=O)nc2sccn12 was read as HSV replic up inactive, PKD1 inh 1, GALR2 agonist 0.5, INS promoter inh 7, RGS16-Gao 97, INS promoter inh cell count 137 and HSV replic up primary fold 1.
Screening Cc1cccc(C)c1NC(=S)N(Cc1ccccc1)Cc1cccnc1 returned HSV replic up inactive, PKD1 inh -5, INS promoter inh -13, RGS16-Gao 98, INS promoter inh cell count 108 and HSV replic up primary fold 0.98.
`CC1(C)Cc2c(C#N)c(SCCOc3ccccc3)nc(N3CCOCC3)c2CO1` gave HSV replic up inactive, PKD1 inh -1, GALR2 agonist 0.8, INS promoter inh 0, RGS16-Gao 102, INS promoter inh cell count 156 and HSV replic up primary fold 0.84.
COc1ccc(S(=O)(=O)N2CCOCC2)cc1NC(=O)Cc1c(Cl)cccc1Cl was read as HSV replic up inactive, PKD1 inh -8, GALR2 agonist 0.7, INS promoter inh -49, RGS16-Gao 113, INS promoter inh cell count 118 and HSV replic up primary fold 0.87.
CCOC(=S)SCC(=O)Nc1nc(C)c(C)s1 was read as HSV replic up inactive, RGS16-Gao 99 and HSV replic up primary fold 0.79.
For Cc1cccc(C)c1NC(=O)COc1cccc(/C=N/NC(=O)C(=O)NCc2ccccc2)c1 the results were HSV replic up inactive, PKD1 inh -9, GALR2 agonist -3.1, INS promoter inh -25, RGS16-Gao 102, INS promoter inh cell count 116 and HSV replic up primary fold 0.92.
`Cc1nn(Cc2c(F)c(F)c(F)c(F)c2F)c(C)c1NC(=O)c1c(-c2ccccc2)nn(-c2ccccc2)c1C` gave HSV replic up inactive, PKD1 inh -4, GALR2 agonist -1.5, INS promoter inh -14, RGS16-Gao 102, INS promoter inh cell count 64 and HSV replic up primary fold 0.7.
`c1ccc(-n2nnnc2SCCCSc2nc3ccccc3s2)cc1` gave HSV replic up inactive, PKD1 inh -2, GALR2 agonist 1.9, RGS16-Gao 106 and HSV replic up primary fold 0.84.
O=C1C(=O)N(Cc2ccccc2)C(=O)N1CCN1C(=O)c2ccccc2C1=O was read as HSV replic up inactive, PKD1 inh 1, INS promoter inh 8, RGS16-Gao 65, INS promoter inh cell count 47 and HSV replic up primary fold 1.1.
Screening CCCSc1nc2c(cnn2-c2ccc(C)c(C)c2)c(=O)[nH]1 returned HSV replic up inactive, PKD1 inh -6, GALR2 agonist -3.1, RGS16-Gao 106 and HSV replic up primary fold 0.67.
COc1ccc(/C=N/NC(=S)Nc2ccccc2)cc1 was read as HSV replic up inactive, PKD1 inh 6, INS promoter inh 7, RGS16-Gao 102, INS promoter inh cell count 88 and HSV replic up primary fold 0.9.
For CCN(CC)c1ccc(N=Cc2c(C)[nH]c3ccccc23)cc1 the results were HSV replic up inactive, PKD1 inh -3, GALR2 agonist -3.5, INS promoter inh -108, RGS16-Gao 75, INS promoter inh cell count 81 and HSV replic up primary fold 0.74.
`CCN(CC)c1ccc(C(=O)OCC(=O)Nc2ccc3[nH]c(=O)[nH]c3c2)cc1` gave HSV replic up inactive, PKD1 inh -3, INS promoter inh -28, RGS16-Gao 96, INS promoter inh cell count 52 and HSV replic up primary fold 1.1.
Screening CN(c1ccc(C(=O)Nc2ccccc2C(=O)N2CCCC2)cc1)S(C)(=O)=O returned HSV replic up inactive, PKD1 inh 0, GALR2 agonist 1.4, INS promoter inh 15, RGS16-Gao 102, INS promoter inh cell count 118 and HSV replic up primary fold 0.81.
O=[N+]([O-])c1cc(S(=O)(=O)N2CCCC2)ccc1N/N=C/c1ccccn1 was read as PKD1 inh 9, GALR2 agonist 0.1, INS promoter inh 15, RGS16-Gao 103 and INS promoter inh cell count 73.
Screening CCCC12CN3CC(C)(CN(C1)C31C(=O)Nc3ccc(C)cc31)C2=O (stereo not drawn) returned HSV replic up inactive, PKD1 inh -7, GALR2 agonist 1.4, INS promoter inh 15, RGS16-Gao 93, INS promoter inh cell count 88 and HSV replic up primary fold 0.79.
Screening CCOC(=O)N1CCN(CC(O)COc2ccccc2C(C)C)CC1 (stereo not drawn) returned HSV replic up inactive, PKD1 inh -26, GALR2 agonist -1.1, INS promoter inh 12, RGS16-Gao 102, INS promoter inh cell count 96 and HSV replic up primary fold 1.
COc1ccccc1C(=O)NCC(=O)Nc1ccccc1 was read as HSV replic up inactive, PKD1 inh -5, GALR2 agonist -1.7, INS promoter inh -33, RGS16-Gao 109, INS promoter inh cell count 71 and HSV replic up primary fold 0.96.
Screening C/C(=N/OC(=O)c1ccc(Cl)cc1Cl)c1oc(C)nc1C returned HSV replic up inactive, RGS16-Gao 112 and HSV replic up primary fold 1.
O=C(CSc1ncn[nH]1)N(C1CCCCC1)C1CCCCC1 was read as HSV replic up inactive, PKD1 inh 0, GALR2 agonist -0.7, INS promoter inh 12, RGS16-Gao 96, INS promoter inh cell count 103 and HSV replic up primary fold 0.92.
`Oc1oc(-c2cccc3ccccc23)nc1C=NCc1ccccc1` gave HSV replic up inactive, PKD1 inh -12, GALR2 agonist -1.7, INS promoter inh 21, RGS16-Gao 93, INS promoter inh cell count 144 and HSV replic up primary fold 1.1.
Screening CCCCn1c(NCc2ccccc2O)nc2ccccc21 returned HSV replic up inactive, PKD1 inh -14, GALR2 agonist -2.8, RGS16-Gao 102 and HSV replic up primary fold 0.61.
`CCOc1ccc(C(=O)CN2CCN(S(=O)(=O)c3ccc(F)cc3)CC2)cc1` gave PKD1 inh -12, GALR2 agonist -0.7, INS promoter inh -55, RGS16-Gao 105 and INS promoter inh cell count 77.
`CC(C)(C)NC(=O)CSc1nc2ccccc2c(=O)[nH]1` gave HSV replic up inactive, RGS16-Gao 100 and HSV replic up primary fold 1.3.
For COc1ccc(CCNC2=NCCS2)cc1 the results were PKD1 inh -2, GALR2 agonist -1.3 and RGS16-Gao 102.
`CC(C)c1ccc(S(=O)(=O)N2CCN(C(=O)c3ccco3)CC2)cc1` gave HSV replic up inactive, PKD1 inh -12, INS promoter inh 35, RGS16-Gao 100, INS promoter inh cell count 118 and HSV replic up primary fold 1.1.
`CCOC(=O)c1oc2ccccc2c1NC(=O)CN1CCOCC1` gave HSV replic up inactive, PKD1 inh 4, INS promoter inh -14, RGS16-Gao 106, INS promoter inh cell count 70 and HSV replic up primary fold 0.96.
COC(=O)CCC(=O)OC1(C)C(=O)C=C2C=C(C3CC3)N(C(CO)CO)C=C2C1=O (stereo not drawn) was read as HSV replic up inactive, RGS16-Gao 108 and HSV replic up primary fold 0.78.
`CCOC(=O)c1sc2ncc([N+](=O)[O-])cc2c1N` gave HSV replic up inactive, RGS16-Gao 101 and HSV replic up primary fold 0.94.
`CC1(C)[C@H]2CC=C(CN3CCC(N4CCC(C(=O)N5CCCC5)CC4)CC3)[C@@H]1C2` gave HSV replic up inactive, PKD1 inh 9, RGS16-Gao 101 and HSV replic up primary fold 1.
`Fc1cc(F)cc(NC(=S)Nc2ccccc2N2CCOCC2)c1` gave HSV replic up inactive, PKD1 inh 2, INS promoter inh 9, RGS16-Gao 97, INS promoter inh cell count 72 and HSV replic up primary fold 1.
`CC(OC(=O)c1cc2sccc2n1C)C(=O)NCCc1ccccc1` (stereo not drawn) gave HSV replic up inactive, PKD1 inh 3, GALR2 agonist -2.5, INS promoter inh -6, RGS16-Gao 105, INS promoter inh cell count 138 and HSV replic up primary fold 0.79.
For O=C(O)c1ccc(S(=O)(=O)Nc2ccc(F)c(Cl)c2)cc1 the results were HSV replic up inactive, PKD1 inh 2, GALR2 agonist -0.3, RGS16-Gao 111 and HSV replic up primary fold 1.
For C/C=C\C(=O)Nc1cccc(C2=NOC3(C2)C[C@@H](C(N)=O)N(C(=O)COc2ccc(Cl)cc2)C3)c1 (stereo partly drawn) the results were HSV replic up inactive, RGS16-Gao 94 and HSV replic up primary fold 0.99.
O=C(c1cc2ccccc2oc1=O)N1CCCC1 was read as HSV replic up inactive, PKD1 inh -7, GALR2 agonist -1.6, INS promoter inh 47, RGS16-Gao 97, INS promoter inh cell count 86 and HSV replic up primary fold 0.92.
Screening CCCCCOC(=O)CCN1C(=O)/C(=C2\SC(=S)N(CCC(=O)OCCCCC)C2=O)SC1=S returned HSV replic up inactive, RGS16-Gao 151 and HSV replic up primary fold 0.93.
`CC(=O)Oc1ccc(OC(C)=O)c2c1CC(C)=C(C)C2` gave HSV replic up inconclusive and RGS16-Gao 110.

Of the compounds above, 7 have an NH in an aromatic ring:
Cc1cc(C)n(Cc2n[nH]c(=S)n2Cc2ccccc2)n1 was read as HSV replic up inactive, PKD1 inh -7, GALR2 agonist -1.0, INS promoter inh -44, RGS16-Gao 103, INS promoter inh cell count 30 and HSV replic up primary fold 0.89.
CCOC(=O)c1[nH]c2ccc(OC)cc2c1NC(=O)N1CCOCC1 was read as HSV replic up inactive, PKD1 inh -1, GALR2 agonist -1.0, INS promoter inh -4, RGS16-Gao 112, INS promoter inh cell count 45 and HSV replic up primary fold 1.
Screening CCCSc1nc2c(cnn2-c2ccc(C)c(C)c2)c(=O)[nH]1 returned HSV replic up inactive, PKD1 inh -6, GALR2 agonist -3.1, RGS16-Gao 106 and HSV replic up primary fold 0.67.
For CCN(CC)c1ccc(N=Cc2c(C)[nH]c3ccccc23)cc1 the results were HSV replic up inactive, PKD1 inh -3, GALR2 agonist -3.5, INS promoter inh -108, RGS16-Gao 75, INS promoter inh cell count 81 and HSV replic up primary fold 0.74.
`CCN(CC)c1ccc(C(=O)OCC(=O)Nc2ccc3[nH]c(=O)[nH]c3c2)cc1` gave HSV replic up inactive, PKD1 inh -3, INS promoter inh -28, RGS16-Gao 96, INS promoter inh cell count 52 and HSV replic up primary fold 1.1.
O=C(CSc1ncn[nH]1)N(C1CCCCC1)C1CCCCC1 was read as HSV replic up inactive, PKD1 inh 0, GALR2 agonist -0.7, INS promoter inh 12, RGS16-Gao 96, INS promoter inh cell count 103 and HSV replic up primary fold 0.92.
`CC(C)(C)NC(=O)CSc1nc2ccccc2c(=O)[nH]1` gave HSV replic up inactive, RGS16-Gao 100 and HSV replic up primary fold 1.3.

From PubChem BioAssay
